# rTrxR1 inhibitor = inhibitors of rat thioredoxin reductase 1; O89049; 390,000 tested, 1% active; Potency, µM (doses to about 114 µM), inactives show at the top dose activity change, negative = inhibition, actives largely listed as inhibitors; recombinant rTrxR1, NADPH fluorescence consumption, selenite substrate; AID 588453; also: % is scaled to controls: 0 for no effect and ±100 for the full control effect; nearly all actives have a fitted effect of over 65% in size
#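 Rat TrxR1 (90 nM in the dispensed reagent) was pre-reduced with 400 uM NADPH for 5 min at room temperature, then incubated with compound for 15 min. After 400 uM selenite was added, NADPH fluorescence (Ex 340/Em 450 nm) was followed for 8 min.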
# ERG Ets-DNA blk = inhibitors of human ERG Ets domain-DNA interaction. P11308. fluorescence polarization, His-ERG Ets domain / labelled DNA. Potency, µM (highest dose often 76.9 µM), for inactives: at the highest dose FP activity, negative = inhibition, usual class: inhibitors. 370,000 tested, 0.028% active. AID 624246; active = well fitted inhibition curve with a large enough effect in the polarisation, with a control signal flat; inconclusive = small, poorly fitted or top-dose-only effect, or effect the other way, or a change in a side signal; inactive = no such curve, though single readings can be large or run the other way; the % refers to the polarisation;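 also: polarization taken with two DNA probes labelled with fluorescein and Texas red; % of control where 0% means no effect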
#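 His-tagged ERG Ets domain (1 uM in the protein solution; 300mM KCl, 50mM Tris-HCl, 1mM EDTA, 1mM DTT, pH 7.5) received compound, then a probe mix of 5 nM fluorescein-DNA and 100nM Texas-615-DNA. Fluorescence polarization was read for both dyes.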
# PGK inhibitor = blocks T. brucei phosphoglycerate kinase; P07378; PGK/GAPDH coupled, Kinase-Glo luminescence, 60 min; Potency, µM (series often up to 57.5 µM), without a hit: at the top dose activity change, negative = inhibition, actives largely listed as inhibitors; 380,000 tested, 0.043% active; also: % is scaled to controls: 0 for no effect and ±100 for the full control effect; nearly all actives have a fitted effect of over 60% in size
#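 Luminescent ATP detection (Kinase-Glo Plus) follows a 60-minute room-temperature incubation, with wells lacking PGK as controls. Buffer: 100 mM TEA (pH 7.6), 5 mM MgCl2, 0.01% Tween-20. Coupling enzyme GAPDH (100 nM final) supplies unstable 1,3-BPG in-well.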
# ALOX12 inh = ALOX12 (human) lipoxygenase inhibition. 580,000 tested, 1.1% active. Potency, µM (titrated, usually from 108 µM), inactives show top-dose activity change, negative = inhibition, hits mostly inhibitors. AID 1671190. purified 12hLO, xylenol orange hydroperoxide absorbance; also: % is scaled to controls: 0 for no effect and ±100 for the full control effect
# Target sequence (P18054 whole entry, looked up): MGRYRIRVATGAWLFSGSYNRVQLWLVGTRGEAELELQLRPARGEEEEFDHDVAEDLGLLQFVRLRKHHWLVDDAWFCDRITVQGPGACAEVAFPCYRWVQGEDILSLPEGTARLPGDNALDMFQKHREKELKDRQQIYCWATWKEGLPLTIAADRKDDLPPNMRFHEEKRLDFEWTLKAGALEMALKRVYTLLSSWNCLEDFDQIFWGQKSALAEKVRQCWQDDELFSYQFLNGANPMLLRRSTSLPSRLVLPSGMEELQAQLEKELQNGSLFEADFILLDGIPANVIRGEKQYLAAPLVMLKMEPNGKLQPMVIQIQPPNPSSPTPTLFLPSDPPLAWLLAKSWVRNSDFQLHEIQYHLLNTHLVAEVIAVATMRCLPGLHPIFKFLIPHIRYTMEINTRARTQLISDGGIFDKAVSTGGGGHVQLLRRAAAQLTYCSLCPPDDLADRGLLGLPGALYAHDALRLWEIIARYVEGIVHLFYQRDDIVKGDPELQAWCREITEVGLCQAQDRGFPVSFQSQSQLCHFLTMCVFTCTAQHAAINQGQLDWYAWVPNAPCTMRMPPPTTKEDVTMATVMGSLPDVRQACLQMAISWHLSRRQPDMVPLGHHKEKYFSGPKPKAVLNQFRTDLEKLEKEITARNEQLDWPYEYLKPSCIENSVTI
#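 Purified human 12hLO (150 nM final) in 25 mM Hepes, 0.01% Triton X-100, pH 7.0 was preincubated 15 min at room temperature with compound. Then 40 uM arachidonic acid was added, 30 min. Hydroperoxide was read by Fe-XO absorbance ratio 573/405 nm.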
# Pin1 inhibitor = inhibitors of human Pin1. Pin1 FP peptide displacement, HiFluor488, 10 min. Potency, µM (doses to about 115 µM), for the others: top-dose activity, negative = inhibition, actives largely listed as inhibitors. 390,000 tested, 0.009% active. AID 504891; active = well fitted inhibition curve with a large enough effect in the polarisation, with a control signal flat, not every such curve was filed as active; inconclusive = small, poorly fitted or top-dose-only effect, or effect the other way, or a change in a side signal; inactive = no such curve, though single readings can be large or run the other way; the % refers to the polarisation; also: % is scaled to controls: 0 for no effect and ±100 for the full control effect
# Target sequence (Q13526 whole entry, looked up): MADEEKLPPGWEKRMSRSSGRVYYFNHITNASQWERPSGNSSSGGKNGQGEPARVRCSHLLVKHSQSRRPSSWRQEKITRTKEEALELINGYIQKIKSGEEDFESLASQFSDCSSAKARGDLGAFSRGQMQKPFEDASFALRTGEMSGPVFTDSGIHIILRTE
# RGS4 inhibitor = human RGS4 inhibition; 390,000 tested, 0.039% active; P49798; Transcreener GDP fluorescence polarization, RGS4-accelerated GTP hydrolysis; Potency, µM (titrated, usually from 114 µM), for inactives: top-dose activity change, negative = inhibition, most hits filed as inhibitors; AID 504845; also: % is scaled to controls: 0 for no effect and ±100 for the full control effect; nearly all actives have a fitted effect of over 75% in size; some results filed as inactive show a strong effect at the top dose
#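 MLSMR compounds (23 nl, pin-transferred) preincubated 10 min at room temperature with a 500nM (2x) first reagent, then RGS4 at 900nM (2x) plus Transcreener GDP mix added; fluorescence polarization (620/688 nm) read before and after 90 min at 30 °C.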
# GLS inh = blocks human kidney-isoform glutaminase activity. GLS enzymatic activity, qHTS titration. Potency, µM (series often up to 45.5 µM), without a hit: at the top dose activity change, negative = inhibition, usual class: inhibitors. 410,000 tested, 0.21% active; also: % is scaled to controls: 0 for no effect and ±100 for the full control effect
#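 Human kidney-isoform GLS in 45 mM KH2PO4 pH 8.2, 0.02% Tween-20, with compound, started with 1mM L-Glutamine (added stock). Glutamate oxidase/HRP/Amplex red coupled fluorescence read at start and after 30 min at RT.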
# Starred values were filed as active, the others as inactive; i = inactive; ? = inconclusive; nt = no result given; & = joins results of further samples; [ ] = remark or other dose. Unless noted, calls follow the shape of the dose curve; as a rule, active = well fitted curve in the direction sought with a large enough effect; inconclusive = small, poorly fitted or top-dose-only effect, or another doubt; inactive = no such curve, though single readings can be large; an effect the other way counts as inactive or inconclusive. Potency is read from the fitted curve at half-maximal effect. This is a subset; the hit share may differ from the screen's.
SMILES,rTrxR1 inhibitor,ERG Ets-DNA blk,PGK inhibitor,ALOX12 inh,Pin1 inhibitor,RGS4 inhibitor,GLS inh
COc1ccccc1N1CCN(C2CCCN(Cc3cc(F)cc(F)c3)C2)CC1 (stereo unspecified),7%,1%,-1%,0%,-8%,19%,14%
COc1ccc(O)c(C(=O)C2c3ccccc3C(=O)N2c2ccc(C)cc2)c1 (stereo unspecified),-62%,-4%,-5%,?,-1%,?,?
O=C(N/N=C/c1ccncc1)c1nc2ccccc2c(=O)[nH]1,19%,16%,i,9%,-6%,10%,-1%
C=CCN(CC=C)CCOc1cccc(Oc2ccccc2)c1,3%,10%,-4%,-29%,2%,-1%,-3%
CCOC(=O)c1c(C)sc(Sc2ccc(Cl)cc2[N+](=O)[O-])c1OC,6%[57.1 µM],-1%,-3%,5%,0%,-1%,3%
CC(C)c1ccc(CN2CCC(C(=O)NCc3cccnc3)CC2)cc1,14%[57.1 µM],-5%,i,-7%,-13%,-19%,-1%
O=C(CSc1ncc(-c2ccccc2)n1-c1ccccc1)NCc1ccco1,7%,nt,nt,16%,-7%,-16%,3%
S=c1[nH]nc(-c2ccccn2)n1/N=C/c1ccc(-c2ccccc2Br)o1,-29%,2%,-1%,?,?,?,13%
CSc1cccc(NCc2ccc([N+](=O)[O-])cc2)c1,-11%[57.1 µM],-6%,-4%,?,-4%,6%,0%
O=C(Nc1ccc(CCC(=O)N2CCCC2)cc1)c1ncn[nH]1,1%,-5%,0%,11%,-2%,21%,7%
CCN1CCN(c2oc(-c3ccc(COc4ccc(OC)cc4)o3)nc2C#N)CC1,36%[activator],0%,-8%,-21%,5%,1%,4%
CCOC(=O)C1CCCCN1Cc1ccc(OC)c(OC)c1OC (stereo unspecified),13%,-2%,-3%,-63%,0%,-28%,-1%
CCCCC1CCC(C(=O)Nc2ccc(N3CCOCC3)cc2N2CCOCC2)CC1 (stereo unspecified),-16%,0%,-8%,-1%,2%,-5%,8%
COC(=O)C1C(=O)C2=C(CC1C)NC(C)=C(C(=O)OC1CCCC1)C2c1ccc(N(C)C)cc1 (stereo unspecified),3%,-7%,i,-16%,-4%,9%,9%
Cc1ccc(OCCCN2CCCC2)c(C)c1,-3%,5%,-8%,-73%,-11%,-45%,-6%
Cc1ccc(C)c(NC(=O)Nc2cc3c(cc2N2CCCCC2)n(C)c(=O)n3C)c1,-20%,1%,i,0%,-11%,-12%,6%
Cc1cccc(NC(=O)CSc2ccc(-c3ccccn3)nn2)c1,-2%,-4%,-5%,-1%,4%,-7%,-8%
CCN(CC)S(=O)(=O)c1ccc(C(=O)Nc2nnc(COC)o2)cc1,-2%,-2%,-1%,0%,0%,29%,-2%
Cc1nn2c(-c3ccco3)ccnc2c1-c1ccc(Br)cc1,11%,-2%,1%,-15%,11%,6%,3%
CC(C)[C@H](NC(=O)c1ccccc1)C(=O)OCC(=O)c1ccc2c(c1)NC(=O)CO2,7%,-3%,-1%,?,4%,-17%,-2%
Fc1ccc(CNCc2ccco2)cc1,?,6%,8%,?,0%,-13%,-2%
Cc1cccc(NC(=O)c2nc[nH]c2C(=O)N[C@@H](C)C(=O)OC(C)(C)C)c1,16%[57.1 µM],0%,0%,0%,?,-9%,-7%
O=C(Nc1nnc(CC2=CCCCC2)s1)c1cccs1,21%,2%,-11%,0%,-6%,-39%,2%
COc1cccc(CN2CCC(C(=O)N3CCC(C)CC3)CC2)c1,9%,3%,i,0%,0%,0%,5%
CCOC(=O)N1CCC(NCCNC(=O)c2ccccc2Cl)CC1,-10%,6%,-9%,?,-11%,4%,3%
COC1CCCCC1Nc1cc(C)ccc1C (stereo unspecified),26%,nt,-3%[11.5 µM],?,1%,-22%,27%
Cc1cccc(CNc2ncc(-c3cccc([N+](=O)[O-])c3)n2C)c1,7%,0%,-4%,?,-3%,-15%[56.9 µM],3%
CC(C)C[C@H](NC(=O)c1nc[nH]c1C(=O)NC1CCNCC1)C(=O)OCc1ccccc1,28%[57.1 µM],-3%,-1%,7%,1%,-20%,1%
CCOc1ccc(CN2C(=O)C(=O)c3cccc(C)c32)cc1OC,3%,5%,-2%,-2%,-8%,?,3%
O=C(Oc1ccccc1)c1ccc(NC(=O)c2ccco2)cc1,-7%,-1%,-7%,-30%,-1%,-41%,-10%
Oc1c(Cl)cc(Cl)c(Cl)c1Cc1c(O)c(Cl)cc(Cl)c1Cl,10%,-2%,?,7.1µM*,nt,-29%,21%&20%
CC(C(=O)Nc1ccccc1-c1ccccc1)N1CCN(C(=O)c2ccccc2)CC1 (stereo unspecified),15%,1%,-2%,-16%,-2%,8%,3%
CC1CN(CCCSc2ccc(Cl)cc2)CC(C)O1 (stereo unspecified),21%[57.1 µM],8%,-2%,?,-3%,2%,0%
Cn1c(-c2ccc(F)cc2)cnc1NCc1ccccc1F,-15%,21%,i,?,2%,-8%,-3%
CC1(C)CC(=O)c2cc(C(=O)Nn3cnnc3)c(=O)n(-c3ccccc3)c2C1,-9%,-17%,2%,?,-13%,5%,3%
CCOC(=O)c1ccc(NC(=O)c2ccccc2N(C)S(=O)(=O)c2ccccc2)cc1,15%,nt,1%,-4%,5%,-3%,0%
CCCCNC(=O)CN1CCN(Cc2ccc3cc(OC)ccc3c2)CC1,16%,-7%,nt,?,-3%,2%,4%
COc1ccc(-c2cc(CNC(=O)CN3CCN(C)CC3)on2)cc1,10%[57.1 µM],7%,-10%,0%,-3%,7%,-6%
C=CCn1c(SCC(=O)Nc2cccnc2Cl)nnc1-c1ccccc1F,4%,-3%,1%,-20%,0%,21%,8%
O=C(O)C/C(=C\c1cc(Cl)c2c(c1)OCO2)c1nc2ccccc2s1,-7%,15%,-3%,?,10%,10%,-11%
CCOC(=O)N1CCN(S(=O)(=O)c2ccc(C(=O)Nc3nnc(C)o3)cc2)CC1,8%[57.1 µM],-13%,-3%,-3%,-12%,23%,8%
CN(CCOc1cccc2ccccc12)Cc1ccccc1,11%,1%,-5%,?,-5%,-3%,-1%
CCCCCCCCc1c(O)nc(-n2[nH]c(C)c(CCO)c2=O)[nH]c1=O,3%,2%,-2%,?,2%,-33%,-3%
CCN1CCN(C(C)C(=O)NC2CCCCC2)CC1 (stereo unspecified),30%,8%,-7%,?,-15%,16%,8%
CC1=C(C(=O)Nc2cccnc2)C(c2ccccc2)n2nc(SCc3ccccc3)nc2N1 (stereo unspecified),19%,1%,1%,-17%,-13%,12%,8%
Cc1ccc(-c2csc3nc4cc(C(=O)NC5CCC(O)CC5)ccc4c(=O)n23)cc1 (stereo unspecified),-15%,-1%,3%,11µM*,6%,-28%,-3%
COc1ccc(OC)c2c(C)cc(N3CCCCCC3)nc12,-31%,8%,-1%,32%[activator],-8%,-13%,-7%
Cc1ncc([N+](=O)[O-])n1CCOC(=O)c1cc(Cl)cc(Cl)c1N,3%[57.1 µM],-2%,-17%,32µM*,?,-29%,42%[activator]

# Filtered by structure: the entries above with an aryl thioether with sulfur outside any ring
SMILES,rTrxR1 inhibitor,ERG Ets-DNA blk,PGK inhibitor,ALOX12 inh,Pin1 inhibitor,RGS4 inhibitor,GLS inh
CCOC(=O)c1c(C)sc(Sc2ccc(Cl)cc2[N+](=O)[O-])c1OC,6%[57.1 µM],-1%,-3%,5%,0%,-1%,3%
O=C(CSc1ncc(-c2ccccc2)n1-c1ccccc1)NCc1ccco1,7%,nt,nt,16%,-7%,-16%,3%
CSc1cccc(NCc2ccc([N+](=O)[O-])cc2)c1,-11%[57.1 µM],-6%,-4%,?,-4%,6%,0%
Cc1cccc(NC(=O)CSc2ccc(-c3ccccn3)nn2)c1,-2%,-4%,-5%,-1%,4%,-7%,-8%
CC1CN(CCCSc2ccc(Cl)cc2)CC(C)O1 (stereo unspecified),21%[57.1 µM],8%,-2%,?,-3%,2%,0%
C=CCn1c(SCC(=O)Nc2cccnc2Cl)nnc1-c1ccccc1F,4%,-3%,1%,-20%,0%,21%,8%
CC1=C(C(=O)Nc2cccnc2)C(c2ccccc2)n2nc(SCc3ccccc3)nc2N1 (stereo unspecified),19%,1%,1%,-17%,-13%,12%,8%

# Screening data from PubChem BioAssay.
